# Bioassay records: PubChem, several laboratories
# HNF4A DNA FP: change in binding of human HNF4 alpha to DNA; AID 1224865; 360,000 compounds, 0.3% hits; activity change, % at 10 µM; P41235; HNF4a-FITC DNA binding, fluorescence polarization, 1 h; in the data active = activity change above about 30%, passing the limit was not always enough;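 note: controls were the assay level and a saturating level of protein; the project sought stronger binding though the title names inhibitors; some compounds called inactive have numbers as strong as hits; positive values seem to mean higher polarization but the record does not say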
# Target sequence (P41235 whole entry, looked up): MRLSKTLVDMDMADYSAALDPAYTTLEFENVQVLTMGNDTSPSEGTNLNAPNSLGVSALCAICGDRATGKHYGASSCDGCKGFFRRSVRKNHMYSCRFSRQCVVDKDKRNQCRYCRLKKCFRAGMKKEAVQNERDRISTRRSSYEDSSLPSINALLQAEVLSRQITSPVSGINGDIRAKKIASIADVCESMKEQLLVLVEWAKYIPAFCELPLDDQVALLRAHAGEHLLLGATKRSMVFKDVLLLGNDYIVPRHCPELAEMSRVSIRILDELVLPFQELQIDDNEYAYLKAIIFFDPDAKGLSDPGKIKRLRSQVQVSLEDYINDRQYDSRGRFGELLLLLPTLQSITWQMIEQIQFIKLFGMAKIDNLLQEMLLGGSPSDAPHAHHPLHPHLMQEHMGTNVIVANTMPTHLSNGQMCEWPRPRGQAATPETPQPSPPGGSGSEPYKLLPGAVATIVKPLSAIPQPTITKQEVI
# E coli growth: inhibitors of Escherichia coli growth; OD600, 23 h; hits give low values; OD600 absorbance (no concentration beside the values); 330,000 compounds, 0.21% hits; AID 1053175;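 active = OD600 absorbance below the run mean of sample wells minus 3.6 SD, in any replicate, cut at about 0.56 in these data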;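 note: stock transfer was 300 nL into about 60 µL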
# RanGTP-Impb inh: disruptors of Ran-importin-beta complex formation – biochemical, FRET, CFP-Ran, YFP-importin-beta, homogeneous, primary screen. cell-free CFP-Ran/YFP-importin-beta FRET ratio. inhibition, % (concentration not given with the values). 300,000 compounds, 1.1% hits;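 active = most replicates above 15%; inconclusive = exactly half above 15%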;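 note: 0% = DMSO wells and 100% = Ran loaded with GDP instead of GTP; wells of about 40 µL received 100 nL stock; the first replicate is given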
# Vif A3G: HIV-1 Vif–A3G interaction blockers – biochemical, TR-FRET, GST-Vif 1-94, biotin-A3G peptide, dose response retest, primary screen (AID 1117319); TR-FRET GST-Vif / biotin-A3G peptide binding; higher % means a stronger effect; test concentration not given here; strong numbers were not always called active; inhibition, %; hits with a dose series show IC50 in µM; 260,000 compounds, 0.57% hits;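 active = above the screen mean plus three standard deviations and confirmed in dose response; inconclusive = results disagree or hit not tested in dose response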;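 note: Vif residues 1-94 fused to GST binding biotinylated APOBEC3G peptide 110-148; 0% = full assay without inhibitor and 100% = GST in place of GST-Vif; retest series ran down from 100 µM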
# UCH37 DUB inh: blocks the human deubiquitinase UCH37 | Q9Y5K5 | purified proteasome/UCH37, Ub-AMC cleavage fluorescence | inhibition, % (no concentration beside the values) | 330,000 compounds, 0.33% hits | AID 588478;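 active = mean of two replicates above 20%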;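 note: 0% = compound-free wells with enzyme and 100% = wells lacking proteasome; stock transfer was 100 nL into about 20 µL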
# Target sequence (Q9Y5K5 whole entry, looked up): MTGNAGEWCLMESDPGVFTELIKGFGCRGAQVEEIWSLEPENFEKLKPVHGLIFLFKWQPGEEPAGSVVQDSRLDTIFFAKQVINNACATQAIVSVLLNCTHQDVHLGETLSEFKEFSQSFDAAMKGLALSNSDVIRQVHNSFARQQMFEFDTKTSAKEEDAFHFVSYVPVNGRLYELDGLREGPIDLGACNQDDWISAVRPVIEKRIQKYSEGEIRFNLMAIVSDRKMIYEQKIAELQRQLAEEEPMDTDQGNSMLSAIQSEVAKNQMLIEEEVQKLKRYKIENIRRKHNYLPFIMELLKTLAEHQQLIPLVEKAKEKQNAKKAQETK
#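 Schedule: 30 min plus 25 min, room temperature / Material: human UCH37 within purified proteasomes / Technique: AMC fluorescence intensity at 355/460 nm / Buffer or medium: pH 7.4 Tris-HCl (50 mM) with ovalbumin, ATP-MgCl2, DTT / Controls: wells without proteasome as full block, compound-free enzyme plus substrate as uninhibited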
# FGF22 binding: binders of recombinant human FGF22 by thermal shift; calls only at 9.99 µM; Q9HCT0; 340,000 compounds, 1.5% hits; SYPRO orange fluorescence; percent of sucrose octasulfate shift, DMSO zero;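 active = melting point raised past a set limit in the mean and every replicate; inconclusive = no clear call; three in four hits are not shown here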
# Target sequence (Q9HCT0 whole entry, looked up): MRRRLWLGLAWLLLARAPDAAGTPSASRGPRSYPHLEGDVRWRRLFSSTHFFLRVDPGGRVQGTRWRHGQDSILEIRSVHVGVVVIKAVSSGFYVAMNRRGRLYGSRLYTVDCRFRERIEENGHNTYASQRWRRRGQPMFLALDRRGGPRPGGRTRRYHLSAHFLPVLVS
# AF4-AF9 inh: MLL-AF4/AF9 protein interaction inhibition | P42568 | AlphaScreen, biotin-AF4 peptide binding to FLAG-AF9 | inhibition, % at 10 µM | 350,000 compounds, 0.47% hits | AID 651704;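 active = every replicate reaching a set inhibition limit, whatever the replicate mean, cut at about 25% in these data; inconclusive = mean inhibition reaches that limit but some replicates miss it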;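 note: 0% = plate neutral control median and 100% = total signal loss; the record names both 10 and 1 µM as test concentration; the first replicate is given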
# The depositor's hits bear a star; i = inactive; ? = inconclusive; · = no result given; + = active, no number.
SMILES,HNF4A DNA FP,E coli growth,RanGTP-Impb inh,Vif A3G,UCH37 DUB inh,FGF22 binding,AF4-AF9 inh
CCOC(=O)c1ccc(NC(=O)CCNc2c(N3CCCC3)c(=O)c2=O)cc1,-3.5,0.77,-5.1,?,1.6,·,·
CCOC(=O)[C@H]1Nc2ccc(Cl)cc2[C@@H]2[C@H]1C1CC(c3ccccc31)N2C(=O)OCc1ccccc1 (stereo partly specified),0.5,·,·,·,·,i,-0.3
CS(=O)(=O)/C(C#N)=C/c1cccn1S(=O)(=O)c1ccccc1,5.1,0.64,5.9,10%,7.9,i,1.7
Cc1cccc(-c2cc3nc4c(c(N5CCC6(CC5)OCCO6)n3n2)CCCC4)c1,-2.5,0.72,·,13%,-33,i,-2.7
Cc1cc(=O)oc2c(C)c(OCC(=O)NCCCN3CCOCC3)ccc12,-0.7,0.61,2.5,-5%,-17,i,-2.3
CCC(=O)c1ccc(OCC(=O)Nc2nn3cnnc3s2)cc1,-4.9,0.76,6.0,-1%,1.8,·,·
OC(CNCCc1ccc(C(F)(F)F)cc1)COc1ccc2ccccc2c1 (stereo unspecified),-0.2,0.56,-0.1,·,7.4,i,-7.5
CC(C)c1ccc(C(=O)Nc2nnc(S(=O)(=O)N3CCCCC3)s2)cc1,0.8,·,3.3,·,·,i,6.3
CCOc1cccc(/C=C2/NC(=O)N(CC(=O)Nc3cccc(C)c3)C2=O)c1O,0.2,0.72,-5.2,?,-4.7,i,-1.0
CC1CCN(C(=S)c2cn(Cc3ccccc3F)c3ccccc23)CC1,1.1,0.77,3.3,-7%,3.3,·,·
O=C(c1ccc2c(=O)n(Cc3ccccc3Cl)c(=S)[nH]c2c1)N1CCOCC1,2.0,0.7,-1.4,·,6.9,i,-1.9
CC(=O)Nc1ccc(NC(=O)Cn2nc([N+](=O)[O-])c(Br)c2C)cc1,1.6,0.74,?,6%,3.6,i,-1.0
CC(=O)c1ccc(NC(=O)C2CCN(S(=O)(=O)c3cccnc3)CC2)cc1,-1.7,0.71,3.2,·,2.4,i,1.6
COc1ccc(-c2csc3nc(-c4ccc(C)cc4)oc(=O)c23)cc1OC,48*,0.67,-3.1,·,-15,i,3.2
Cc1ccc(C)c(N2CCN(c3ccncc3N)CC2)c1,2.9,0.59,1.3,-2%,6.4,i,11
CC(C)c1ccc(NS(=O)(=O)c2ccc(-n3cccn3)cc2)cc1,-0.9,0.68,0.4,15%,2.4,i,0.3
O=C(CNS(=O)(=O)c1ccccc1)OCC(=O)c1c[nH]c2ccccc12,0.1,0.65,·,12%,-1.5,+,0.2
CC(=O)c1cccc(NC(=O)c2sc(Cl)nc2C)c1,1.3,0.74,1.0,·,1.3,i,-2.1
O=C(CCN1C(=O)c2ccccc2C1=O)Nc1ccccn1,-2.3,0.71,?,1%,-1.0,·,·
COC(=O)c1cc2ccccc2oc1=O,5.4,0.7,-4.0,30%,-26,·,·
O=C(/C=C/c1ccccc1)N/C(=C/c1ccccc1)C(=O)Nc1cccc(C(=O)O)c1,3.0,·,-2.6,-7%,0.7,i,-5.9
COC(=O)C1C2C=CC3(CN(c4ccc(Cl)c(F)c4)C(=O)C13)O2 (stereo unspecified),2.1,0.73,2.3,4%,4.3,i,-3.5
COc1ccccc1Cc1c(-c2ccco2)nc2c3ccccc3ccn12,8.1,·,·,·,·,i,2.4
O=C(CNC(=O)C1COc2ccccc2O1)N/N=C/c1cc(Br)c(O)c(Br)c1 (stereo unspecified),-3.6,·,0.0,·,·,i,-11
CCOC(=O)C1CCCN(Cc2c(C(=O)N3CCOCC3)nc3ccccn23)C1 (stereo unspecified),-3.9,0.68,-3.4,-5%,i,i,-2.3
O=C(O)c1cc(-c2ccc(/C=N/Nc3ccc(Cl)cc3)o2)ccc1Cl,3.3,·,3.2,?,·,·,·
O=C(CCN1C(=O)C2CCCCC2C1=O)Nc1nc(-c2ccc(F)c(F)c2)cs1 (stereo unspecified),8.0,·,10,-5%,·,i,-2.1
COc1ccc(-c2csc3ncn(-c4ccccc4)c(=O)c23)cc1OC,0.1,0.67,-0.2,·,-2.1,i,0.4
CCOC(=O)c1ccc(NC(=O)C(=O)NCCc2ccc(OC)cc2)cc1,2.0,0.69,5.4,-9%,2.0,i,-3.0
CS(=O)(=O)Oc1ccc2c(c1)O/C(=C\c1cccnc1)C2=O,-1.9,0.64,-0.5,·,-1.2,i,4.7
CCc1ccc(NS(=O)(=O)c2ccc3c(c2)oc(=O)n3C)cc1,-0.5,0.65,-0.2,-3%,0.3,i,35*
Cc1cc(C)cc(N(C(=O)Cc2cccs2)C(C(=O)NC2CCCC2)c2ccc(C)o2)c1 (stereo unspecified),-1.6,0.7,-0.6,-1%,0.4,i,-41
COC(=O)C1CCN(CC(N)=O)CC1,0.3,0.69,2.5,?,2.6,·,·
Cc1ccc(NC(=O)c2cc(-c3ccc4c(c3)OCO4)on2)cc1C,-3.0,0.69,3.3,·,-52,i,1.4
O=C(NNC(=O)c1cc(Cl)nc2ccccc12)c1ccccc1F,0.4,0.65,-0.9,0%,0.3,i,-3.3
CCOc1ccccc1C(=O)NC1CC2CCCC(C1)N2Cc1ccc(C)cc1 (stereo unspecified),-4.7,0.66,0.6,·,-1.3,i,-2.6
COc1cccc(N2C(=O)CC(NNC(=O)c3cccs3)C2=O)c1 (stereo unspecified),0.6,0.68,0.0,3%,1.8,i,-3.6
O=C(Nc1cccc(O)c1)c1ccc(C(=O)c2ccccc2)o1,-1.1,0.71,-1.9,-5%,1.3,i,-0.9
CCCCn1c(SCC(=O)N2CCCCC2)nc2cc(S(N)(=O)=O)ccc21,1.0,0.71,?,5%,1.9,·,·
O=C(NCCNC(=O)c1cnccn1)c1ccc(Cl)c(Cl)c1,-0.3,0.68,5.9,·,2.5,i,0.3
Cc1ccc(-c2cc(N)on2)cc1,-2.1,0.75,3.3,·,2.2,·,·
CCOC(=O)C1(C)NC(c2ccco2)C2C(=O)N(c3ccccc3)C(=O)C21 (stereo unspecified),2.6,0.7,-1.5,3%,1.8,i,-2.4
Cc1ccccc1N(CC(=O)N1CCOCC1)S(C)(=O)=O,4.2,0.63,-0.4,5%,1.3,i,-2.7
CCOC(=O)C(O)(CCC(O)(C(=O)OCC)C(=O)OCC)C(=O)OCC,1.1,0.61,6.6,-2%,1.1,·,·
COc1ccc(N2CCN(Cc3nc4c(c(=O)n(C)c(=O)n4C)n3CCc3ccccc3)CC2)cc1,-2.4,0.81,0.2,-5%,3.2,i,-9.2
Cc1noc(C)c1COC(=O)c1ccc(N(C)C)cc1,-2.6,0.63,-0.4,1%,2.1,i,0.9
COc1cccc(CNS(=O)(=O)c2ccc3c(c2)CC(C)N3C(=O)C2CCC2)c1 (stereo unspecified),0.9,0.7,0.7,·,5.9,i,-1.5
Cc1cc(NC(=O)CSCC(=O)OCc2nnc(-c3ccccc3)o2)no1,1.2,0.71,0.4,·,1.5,i,-7.0
CCOc1cc(N2CCOCC2)c(OCC)cc1NC(=O)Cc1cn2ccsc2n1,1.7,0.66,0.1,16%,5.1,·,·
COc1ccc(CNc2c(C(=O)O)cnc3c2cnn3C)cc1,-3.2,0.68,5.2,-15%,4.4,i,5.4
CC(=O)Nc1ccc(C(=O)OCC(=O)Nc2ccccc2Sc2ccccc2)cc1,3.0,0.73,5.7,27%,-1.6,i,1.3
COc1ccc(NC(=O)CN(C)C(=O)C2CC(=O)N(c3ccc4c(c3)OCCO4)C2)cc1 (stereo unspecified),3.2,0.69,-1.2,1%,-1.5,i,16
Cc1ccc2c(c1)N(CC(=O)N1CCCCCC1)C(=O)c1cccnc1O2,-0.6,0.67,-6.5,-10%,0.6,i,-0.5
CCN(CC)S(=O)(=O)c1ccc(Cl)c(NC(=O)COc2ccc(OC)cc2)c1,5.3,0.72,1.1,-10%,1.9,i,-1.6
Cc1ccc(/C(O)=C2\C(=O)C(=O)N(CC(C)O)C2c2ccc(N(C)C)cc2)cc1 (stereo unspecified),-3.7,·,2.8,7%,-2.6,·,·
CCOC(=O)c1sc(NC(=O)CCSC)nc1C,1.5,0.71,1.4,22%,1.0,·,·
CCc1nn(CC(=O)NCCCN2CCOCC2)c(=O)c2cc3sccc3n12,-3.2,0.69,-2.2,·,-2.0,i,-0.3
Cc1nc2c(ccc3nc(NC(=O)C(c4ccccc4)c4ccccc4)sc32)s1,5.0,0.74,-1.8,1%,3.7,i,0.3
O=C(Nc1nnc(S(=O)(=O)N2CCCCC2)s1)c1ccc(Cl)cc1,2.0,0.79,-1.0,·,3.6,i,-8.4
Cc1oc2ccc(NS(=O)(=O)c3cccc4cccnc34)cc2c1C(=O)OC(C)C,-0.6,0.68,-0.1,·,2.4,·,·

# Some of the entries above in a different format.
CCOC(=O)c1sc(NC(=O)CCSC)nc1C
  HNF4A DNA FP = 1.5
  E coli growth = 0.71
  RanGTP-Impb inh = 1.4
  Vif A3G = 22%
  UCH37 DUB inh = 1.0
  FGF22 binding = ·
  AF4-AF9 inh = ·

CCc1nn(CC(=O)NCCCN2CCOCC2)c(=O)c2cc3sccc3n12
  HNF4A DNA FP = -3.2
  E coli growth = 0.69
  RanGTP-Impb inh = -2.2
  Vif A3G = ·
  UCH37 DUB inh = -2.0
  FGF22 binding = i
  AF4-AF9 inh = -0.3

Cc1nc2c(ccc3nc(NC(=O)C(c4ccccc4)c4ccccc4)sc32)s1
  HNF4A DNA FP = 5.0
  E coli growth = 0.74
  RanGTP-Impb inh = -1.8
  Vif A3G = 1%
  UCH37 DUB inh = 3.7
  FGF22 binding = i
  AF4-AF9 inh = 0.3

O=C(Nc1nnc(S(=O)(=O)N2CCCCC2)s1)c1ccc(Cl)cc1
  HNF4A DNA FP = 2.0
  E coli growth = 0.79
  RanGTP-Impb inh = -1.0
  Vif A3G = ·
  UCH37 DUB inh = 3.6
  FGF22 binding = i
  AF4-AF9 inh = -8.4

# The results go on.
SMILES,HNF4A DNA FP,E coli growth,RanGTP-Impb inh,Vif A3G,UCH37 DUB inh,FGF22 binding,AF4-AF9 inh
Cc1cc(O)ccc1-c1cnc2ccccc2n1,0.9,0.63,-1.9,34%,3.5,·,·
CCC1Nc2ccccc2-c2nnc(SC)nc2O1 (stereo unspecified),-2.0,·,-0.3,1%,-0.3,·,·
Cc1ccccc1Nc1nc(N)nc(CSc2nc3ccccc3c(=O)n2C)n1,-1.5,0.68,-2.8,-277%,1.7,·,·
OC1CCN(C(=S)Nc2ccc(Nc3ccccc3)cc2)CC1,-0.2,0.68,5.7,12%,4.4,i,10.0
Cc1ccc(CN2C3CCCC2CC(NC(=O)c2ccc(C)cc2)C3)cc1 (stereo unspecified),-0.9,0.69,6.5,-12%,2.3,i,0.5
COc1ccc2nc(NC(=O)CSc3nnc(N)s3)sc2c1,-0.5,0.7,4.3,10%,1.5,i,7.8
CCOc1ccccc1C(=O)Nc1nnc(CC)s1,5.2,0.77,7.6,-2%,4.2,i,-0.6
COc1cccc2c1C(=O)CC1C2CCC2CC(=O)CCC21C (stereo unspecified),-1.5,0.66,-2.2,·,5.6,i,-1.0
COc1ccc(C(=O)Nc2ccc(NC(=O)CSc3nnc(-c4ccncc4)n3C)cc2)cc1,1.2,0.73,-4.3,·,3.1,i,1.0
Fc1ccc(-n2nnc(-c3cccnc3)n2)cc1,-0.8,0.67,-4.0,·,1.9,i,-1.2
O=C(NCCCN1CCOCC1)c1onc(CSc2ccccc2)c1C(=O)NCCCN1CCOCC1,-6.2,0.7,-2.9,·,0.7,·,·
C/C(=N\NC(=S)NC1CCCCC1)c1ccccc1,-1.2,·,6.7,0%,·,·,·
O=S(=O)(NC1=NCCCCC1)c1ccc2ccccc2c1,-1.7,0.67,0.8,3%,1.4,·,·
O=[N+]([O-])c1ccccc1/C=N/n1c(-c2ccccc2)n[nH]c1=S,-2.3,·,-1.3,-6%,·,i,-0.6
COc1ccccc1CNC(=O)COC(=O)c1cc(C)oc1C,1.6,0.66,-0.2,1%,0.9,i,-1.1

# Not all compounds are listed (hit frequency here may not be typical).
